Source: PubChem BioAssay
TAR Tat displ = HIV-1 TAR-Tat binding disruption; HIV-1 TAR RNA, Tat peptide displacement FRET; active compounds read high; z-score (concentration not given with the values); 100,000 compounds, 0.6% hits;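 further: score is relative to mean and SD of negative controls; some compounds called inactive have numbers as strong as hits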
CDC25B-CDK2 inh = human CDC25B-CDK2/CyclinA binding inhibition. P30305+P24941. HTRF CDC25B-CDK2/CyclinA binding, anti-His/anti-Flag; active compounds read high. z-score (no concentration beside the values). 94,000 compounds, 0.72% hits. AID 1259370;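 further: score is relative to mean and SD of negative controls; strong numbers were not always called active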
Active calls of the source: *; . = not tested or not shown.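 How the source made its calls: active means z-score from 3 up in half or more of its runs; inactive means the rest.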

smiles,TAR Tat displ,CDC25B-CDK2 inh
Cc1cccc(Nc2nc(NC3CCCC3)nc3c2cnn3C)c1,0.65,.
Cc1cc2c(cc1CNC(=O)Cn1cc(C(=O)C3CC3)c3ccccc31)OCCCO2,1.3,.
CCCCCCC1CC(=O)NC(=S)N1 (stereo unspecified),.,-0.19
CN1CCN(c2nc3c(c(=O)n(C)c(=O)n3C)n2CC(=O)c2ccccc2)CC1,.,-0.64
COc1nc2cc(C)ccc2cc1-c1noc(-c2cccnc2)n1,2.1,-11
CN(C)CCN(Cc1ccccc1)C(=O)c1cc2c(s1)-c1ccccc1OC2,3.1,-1.1
O=C(CC1(O)C(=O)N(CCCc2ccccc2)c2ccccc21)c1ccccc1 (stereo unspecified),-0.07,1.6
Cn1c(=O)c(-c2nnc(N)o2)nc2ccccc21,1.9,.
O=C1ON=C(CSc2ccccc2)/C1=C/c1ccc(Cl)cc1,.,-0.04
Clc1ccc(OCCN2CCCCC2)cc1,.,-0.22
COc1ccc2c(c1)SC1=NC(=O)C(Cc3ccccc3)C(=O)N12 (stereo unspecified),2,0.37
CC(C)S(=O)(=O)c1oc(-c2ccc(F)cc2)nc1S(=O)(=O)c1ccc(Br)cc1,0.29,-3

The final 5 entries of the part before open the next one:
smiles,TAR Tat displ,CDC25B-CDK2 inh
Cn1c(=O)c(-c2nnc(N)o2)nc2ccccc21,1.9,.
O=C1ON=C(CSc2ccccc2)/C1=C/c1ccc(Cl)cc1,.,-0.04
Clc1ccc(OCCN2CCCCC2)cc1,.,-0.22
COc1ccc2c(c1)SC1=NC(=O)C(Cc3ccccc3)C(=O)N12 (stereo unspecified),2,0.37
CC(C)S(=O)(=O)c1oc(-c2ccc(F)cc2)nc1S(=O)(=O)c1ccc(Br)cc1,0.29,-3
COCCCNC(=O)CCc1c(C)nc2c(c1C)c(=O)n(C)c(=O)n2C,2.5,-2.7
CCOC(=O)c1cc(S(=O)(=O)N2c3ccccc3CC2C)cn1C (stereo unspecified),1.1,-1.1
Cc1cccc(-c2noc(-c3ccc(C)c(C)c3)n2)c1,.,1.3
Cn1c(SCc2cc(=O)n3[nH]c(-c4ccccc4)nc3n2)nnc1-c1ccco1,0.56,.
COCC(=O)Nc1nc2nc(C)c(Cl)c(=O)n2[nH]1,-2,-1.5
CC(=O)NC1C(OC2OC(CC(O)C3OC(n4ccc(=O)[nH]c4=O)C(O)C3O)C(O)C(O)C2NC(=O)/C=C\CC(C)C)OC(C)C(O)C1O (stereo unspecified),-0.38,.
Cc1cccc(N(C)S(=O)(=O)c2ccc(-c3cc(C(F)(F)F)on3)s2)c1,1.4,.
COc1ccc(-c2noc(C3CCCN(S(=O)(=O)c4ccc(C(C)C)cc4)C3)n2)cc1OC (stereo unspecified),0.89,.
Cc1cc(N2CCN(C)CC2)n2nc(-c3ccccc3C)nc2n1,0.07,-2.2
CC1CN(CC(=O)N2CCN(C)CC2)c2ccccc2S1 (stereo unspecified),0.78,.
CCCCC1CCC(C(=O)N(Cc2sccc2C)C2CCS(=O)(=O)C2)CC1 (stereo unspecified),1.1,-0.78
O=C(c1cc(F)cc2c1OCOC2)N1CCN(C2c3ccccc3-c3ccccc32)CC1,.,-0.15

Next section
smiles,TAR Tat displ,CDC25B-CDK2 inh
CC1(C)Cc2c(sc(NC(=O)C(c3ccccc3)c3ccccc3)c2C#N)CO1,0.46,-0.56
CCN1C(=O)c2cccc3c(S(=O)(=O)NCCCCCC(=O)O)ccc1c23,1.3,0.32
Cc1oc(S(=O)(=O)N2CCCCC2)cc1C(=O)Nc1ccc2c(c1)OCO2,.,-0.05
Cc1cc(NCCCn2ccnc2)n2c(nc3ccccc32)c1C#N,-7.2,-0.08
CN1CCN(C(=O)C(=O)Nc2c3c(nn2-c2cccc(Cl)c2)CSC3)CC1,0.83,.
COc1ccc(S(=O)(=O)Nc2ncn(Cc3ccc(Cl)cc3)n2)cc1Cl,-0.21,-0.26
Cc1ccc(-c2nsc(NC(=O)c3ccco3)n2)s1,-1.8,-0.6
COc1cccc(OC)c1C(=O)N[C@@H]1C(=O)N2[C@@H]1SC(C)(C)[C@@H]2C(=O)O,0.9,.
COc1ccc(N2C(=O)C3CCCN3C2c2ccccc2OC)cc1 (stereo unspecified),1.6,-1.2
CCOC(=O)c1c(C)oc2ncnc(N3CCN(c4ccccn4)CC3)c12,-0.99,.
CCn1nc(C)cc1-c1nnc(SCC(=O)Nc2ccc(C(C)C)cc2)o1,.,-1.4
CCc1ccc(-c2cc(C)no2)cc1S(=O)(=O)Nc1ccc(F)c(F)c1,1,.

The results go on.
smiles,TAR Tat displ,CDC25B-CDK2 inh
C[C@@H]1CC[C@H]2C(C)(C)C3CC12CC[C@@]3(C)O (stereo partly specified),1.3,.
Cc1[nH]nc(-c2ccc(S(=O)(=O)NCc3cccnc3)s2)c1C,1.6,.
C=CCNc1oc(-c2ccc(COc3ccc(C)cc3)o2)nc1C#N,0.43,-0.12
CCc1ccc2oc(C(=O)N(Cc3ccc(C)o3)C3CCS(=O)(=O)C3)c(C)c2c1 (stereo unspecified),1.1,0.71
CCNC(=O)CC1C(=O)N(c2ccc(F)cc2)C(=O)N1CCC(C)C (stereo unspecified),.,-1.1
COc1ccc(OC)c(NC(=O)C(C)Sc2nnc(-c3ccoc3C)o2)c1 (stereo unspecified),2.1,12*
Cc1csc(NC(=O)CSc2c(CC(C)C)cnc3c2c(=O)n(C)c(=O)n3C)n1,-0.28,.
COc1ccc(-c2nc(SCCOc3ccccc3OC)n3[nH]c(=O)cc3n2)cc1,-0.08,.
CCC(C)(C)NS(=O)(=O)c1ccc2c(c1)NC(=O)C(C)C(=O)N2 (stereo unspecified),.,-0.95
Cc1nc(N(C)C)c(C#N)c(C)c1[N+](=O)[O-],.,-1.4
COc1ccc(Cl)cc1NS(=O)(=O)c1ccc2[nH]c3c(c2c1)CCCC3,1.2,.
O=C(CSCc1ccc(F)cc1)Nc1noc2ccccc12,0.52,.

Later entries
smiles,TAR Tat displ,CDC25B-CDK2 inh
CCc1cc2c(=O)oc(-c3ccccc3F)nc2s1,.,0.23
Cc1noc(C)c1C(=O)Oc1ccc([N+](=O)[O-])cc1,.,-0.21
CCOc1ccc(-n2c3c(c(SCC)nc2=O)CCC3)cc1,2.1,-2.5
CCOc1ccc2nc(NC(=O)c3cc4c([nH]c3=O)CC(C)(C)CC4=O)sc2c1,0.42,-0.91
NS(=O)(=O)c1ccc(NC(=O)c2cc3ccccc3c(=O)s2)cc1,.,-2
Cc1nc2c(c(C)nn2C)c(C)c1CCC(=O)NC(C)c1ccc2c(c1)OCCO2 (stereo unspecified),0.89,-1.1
O=C(NCC1CCN(C2CCCC2)C1)Nc1cccc2c1CCCC2 (stereo unspecified),2.1,-1.2
COC(=O)c1ccc(CSc2nc3ccncc3n2Cc2ccc(F)cc2)cc1,0.37,-1.4
CCOC(=O)N1CCN(C(=O)c2sc3ncn(CC(=O)N4CCCCC4)c(=O)c3c2C)CC1,2.5,.
CCn1c(SCc2nc(-c3cc(OC)ccc3OC)no2)nnc1-c1ccc(Cl)cc1,1.8,-1.5
COc1ccc(Br)c(-c2nnc(Cc3ccccc3Cl)o2)c1,0.88,-1.5
Cc1cccc(N2CCN(S(=O)(=O)c3c(C)noc3C)CC2C)c1 (stereo unspecified),0.51,-2.7

The results go on.
smiles,TAR Tat displ,CDC25B-CDK2 inh
CC1=NN(C(=O)c2ccc(C)cc2)C(O)(C(F)(F)F)C1 (stereo unspecified),.,1.7
O=C(NCc1ccc2c(c1)OCO2)c1cc2c(s1)-c1ccccc1OC2,1,-0.88
CCN(CC)CCNC1=NCCn2c1cc1cc(OC)ccc12,0.83,-1.2
c1cnc(-c2nc(C34CC5CC(CC(C5)C3)C4)cs2)cn1,.,-1.8
O=C(NCC1CC1)Nc1csc(Cc2c(Cl)cccc2Cl)n1,.,1
Nc1nc(NCc2ccccc2)nc(Nc2ccc(F)cc2)c1[N+](=O)[O-],0.74,.
CN(C)CCNC(=O)c1c(O)c2c([nH]c1=O)CCCC2,1.6,.
COCCOc1nc2c(c(=O)n(C)c(=O)n2C)n1CCc1ccccc1,1,0.95
Cc1nc(NC2=NCCC(=O)N2)nc2ccccc12,2.5,0.83
COc1cc(NC(=O)Cn2nc(C(F)(F)F)c3c2CCC3)c(OC)cc1Cl,2,0.39
Cc1nn(C)c(C)c1CNC(=O)CN(C)c1nnc(N2CCCC2=O)s1,1.5,.
O=C(Nc1cccnc1)c1c(O)c2ccccc2[nH]c1=O,0.84,.

2 compounds picked at random from those above:
smiles,TAR Tat displ,CDC25B-CDK2 inh
Cc1nc(NC2=NCCC(=O)N2)nc2ccccc12,2.5,0.83
c1cnc(-c2nc(C34CC5CC(CC(C5)C3)C4)cs2)cn1,.,-1.8

Additional records follow.
smiles,TAR Tat displ,CDC25B-CDK2 inh
CS(=O)(=O)c1ccc(-c2cccc(NS(=O)(=O)c3ccc(Br)cc3)c2)nn1,-0.16,.
CCn1ccc2cc(S(=O)(=O)N3CCCC(C(=O)NC4CCCC4)C3)ccc21 (stereo unspecified),1,.
CCc1nc(-c2csc(S(=O)(=O)Nc3cccc(OC)c3)c2)no1,0.45,.
CCOC(=O)Cn1c(=O)oc2cc(S(=O)(=O)N3CCN(C)CC3)ccc21,.,-1.1
O=S(=O)(Cc1ccc(Cl)cc1)N1CCCCCC1,.,1.8
CC(C)CN(CCNC(=O)Cn1ncc2ccsc2c1=O)CC(C)C,1.5,1
COC(=O)c1sccc1NC(=O)CSCCc1ccccn1,2.4,.
CCOCCCN1C(=O)Cn2cccc2C1C(=O)NC1CCC(C)CC1 (stereo unspecified),0.64,-1.2
CC1CN(C(=O)Cn2cc(SCC(=O)NC3CCCCC3)c3ccccc32)CC(C)O1 (stereo unspecified),-0.73,.
COc1ccc(OCc2nnc(SCc3cc(=O)c4cc(C)cc(C)c4[nH]3)n2C)cc1,0.48,.
CCc1n(CC(O)COC2CCCCC2)c2ccccc2[n+]1C (stereo unspecified),0.46,-3.4
Cc1ccc(C2Oc3ccccc3C3CC(c4ccncc4)=NN32)cc1 (stereo unspecified),0.05,1.1

Going on with the list.
smiles,TAR Tat displ,CDC25B-CDK2 inh
O=C(NCc1ccc2c(c1)OCO2)c1cc2c(s1)-c1ccccc1S(=O)(=O)C2,0.8,-5.1
COCCNC(=O)c1cnn2c3c(cnc12)CC(C)CC3 (stereo unspecified),-1.2,.
CC1=C(c2ccccc2)S(=O)(=O)N=C1Nc1c(C)cc(C)cc1C,-1.6,0.66
CSc1ccc(C(F)(F)F)cc1C(=O)/C=C/N(C)C,.,-3.2
CC1(C)CC(=O)c2cn(-c3ccccc3)c(=O)c(C(=O)O)c2C1,1.1,-0.19
O=S(=O)(Nc1cccc(-c2cc3cc(Cl)ccc3[nH]2)c1)c1cnc[nH]1,-2.8,.
CCCCCN(CCCCC)C(=O)C(CCC(=O)O)NC(=O)c1ccc(Cl)c(Cl)c1 (stereo unspecified),.,0.08
O=C(NCc1c(-n2cccc2)sc2c1CCCC2)Nc1cccc(Br)c1,1.2,0.58
O=C(O)c1ccccc1N/C=C/[N+](=O)[O-],.,-0.77
Cc1nc(N2CCN(C)CC2)ncc1C(=O)NCc1ccco1,0.35,.
COc1ccc(-c2cc(N)n(S(=O)(=O)c3ccc(F)c(C)c3)n2)c(OC)c1,-2.9,-2.4
Cn1cnc(S(=O)(=O)N2CCN(c3nc4cccnc4s3)CC2)c1,-0.43,.

2 successive entries from above, for reference:
smiles,TAR Tat displ,CDC25B-CDK2 inh
CSc1ccc(C(F)(F)F)cc1C(=O)/C=C/N(C)C,.,-3.2
CC1(C)CC(=O)c2cn(-c3ccccc3)c(=O)c(C(=O)O)c2C1,1.1,-0.19

Later entries:
smiles,TAR Tat displ,CDC25B-CDK2 inh
COc1ccc(-n2ccnc(SCC(=O)NC3CCCC3)c2=O)cc1,0.89,.
CC1CC(C)CN(CCCNC(=O)CCCn2ncn3c(cc4occc43)c2=O)C1 (stereo unspecified),1.8,1
O=C(Nc1ccc(Br)cc1)C1CCN(c2cnccn2)CC1,1.3,-1.1
C=CCN1CC(O)=C(c2nc3ccccc3s2)C1=N,1.9,-0.08
CC1CCC(NC(=O)Cn2c(=O)oc3cc(S(=O)(=O)NC4CCCC4)ccc32)CC1 (stereo unspecified),-0.01,0.05
CN1CCN(CCNC(=O)c2cc3c(s2)-c2ccccc2S(=O)(=O)C3)CC1,1.2,-2
COc1ccc(N2C(=O)c3ccncc3C2=O)cc1OC,3.1,.
COC(=O)c1cnc(N2CCCN(C(=O)C3COc4ccccc4O3)CC2)nc1C(F)(F)F (stereo unspecified),.,-1.7
Cc1ccccc1C1C(C#N)=C(N)OC2=C1C(=O)CC(C)(C)C2 (stereo unspecified),.,-0.2
N=C1C(c2nc3ccccc3s2)=C(O)CN1Cc1ccccc1Cl,1.5,-2.6
CC(C)c1ccc(NC(=O)c2cnc3sc(N4CCCC4)nn3c2=O)cc1,1.1,.
C=CCn1c(SCC(=O)c2ccccc2)nc2cc(C(=O)NCc3ccco3)ccc2c1=O,.,0.54
N#CC1=C(N)Oc2nc(C(F)(F)F)[nH]c2C1c1cccnc1 (stereo unspecified),.,-0.29
Cc1cc(C(=O)Nc2cc(Br)ccc2O)on1,1.1,-0.42
